High-throughput results: PubChem BioAssay, Broad Institute
DUX4 txn inh: DUX4-mediated transcription inhibition. 293T-iDUX4 ZSCAN4-Gaussia luciferase reporter, 24 h; stronger effect = lower value. activity change, negative = inhibition, % (concentration not given with the values). 0.8% of 37,000 active;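 active means -10% or lower and over 25 points stronger than a control reporter; inconclusive means -10% or lower with a smaller gap; inactive means above -10%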;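 further: 0% = median of neutral control wells and -100% = median of positive control wells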
DUX4 txn inh difference: further read-out of DUX4 txn inh, marked with its call; Gaussia minus Italica difference, %; measured here: selective DUX4 reporter inhibition;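 worked out from the two reporters; negative = selective loss of the DUX4 reporter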
DUX4 txn inh control: second read-out of DUX4 txn inh, no call of its own (marks repeat the call); activity change, negative = inhibition, %; measured here: Italica tet-on control reporter;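 0 = neutral control and -100 = positive control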
* = called active by the depositor; ? = inconclusive; nt = no result given; & = joins results of further samples.

SMILES	DUX4 txn inh	DUX4 txn inh difference	DUX4 txn inh control
COCCNC(=O)[C@@H]1[C@@H](CO)[C@@H]2Cn3c(ccc(C4=CCCCC4)c3=O)[C@H]1N2C(=O)C1CCC1	13.8	4.3	9.5
CCc1sc(N2[C@@H](C#N)[C@@H](c3ccccc3-c3cccc(C)c3)[C@@H]2CO)nc1C	?	nt	nt
CCC(=O)N1[C@H](CO)[C@@H]2c3ccccc3N(C(=O)NC(C)C)C[C@@H]21	3.0	0.8	2.2
O=C(c1ccccc1)N1CC(=O)N2[C@H](C1)[C@@H](c1ccc(-c3ccccc3)cc1)[C@@H]2CO	0.3	6.4	-6.1
O=C(C1CCCCC1)N1CC(=O)N2[C@H](CO)[C@H](c3ccc(-c4ccccc4F)cc3)[C@@H]2C1	5.8	7.3	-1.5
CCC(=O)N1CC2(CN(Cc3cccnc3)C2)c2c(n(C)c3cc(OC)ccc23)[C@H]1CO	3.6	6.9	-3.3
O=C(O)C[C@@H]1C[C@H]2c3cc(NC(=O)c4ccc5c(c4)OCO5)ccc3O[C@H]2[C@@H](CO)O1	0.6	-1.8	2.4
Cc1cc(C(=O)Nc2ccc3c(c2)C(=O)N(C)[C@H]2CC[C@H](CC(=O)NCC(F)(F)F)O[C@@H]2CO3)no1	-3.2	-4.7	1.5
O=S(=O)(c1ccccc1F)N1CCCCN2[C@H](CO)[C@@H](c3ccc(-c4cncnc4)cc3)[C@H]2C1	-1.4	0.5	-1.9
C[C@H]1CN([C@@H](C)CO)C(=O)Cc2cc(NC(=O)Nc3ccc4c(c3)OCO4)ccc2O[C@@H]1CN(C)S(=O)(=O)c1ccccc1	-1.2	2.2	-3.4
CO[C@H]1CN(C)C(=O)c2cc(NC(=O)Nc3c(C)noc3C)ccc2OC[C@H](C)NC[C@@H]1C	3.0	0.7	2.4
CCCC#Cc1ccc2c(c1)O[C@H](CN(C)S(=O)(=O)c1cccc(F)c1)[C@@H](C)CN([C@@H](C)CO)S2(=O)=O	3.2	-0.8	4.0
C[C@@H]1CN([C@H](C)CO)C(=O)CCCn2nncc2CO[C@@H]1CN(C)C(=O)c1ccc(N2CCN(C)CC2)cc1	-1.7	0.2	-1.8
CCCC(=O)Nc1ccc2c(c1)OC[C@@H](C)N(CCc1ccccc1)C[C@@H](C)[C@@H](OC)CN(C)C2=O	-3.7	0.4	-4.1
O=C(C[C@H]1CC[C@@H]2[C@H](COC[C@H](O)CN2S(=O)(=O)c2ccccc2Cl)O1)NCc1ccccc1Cl	0.9	-2.6	3.5
COCC(=O)N1CC(=O)N2[C@H](C1)[C@@H](c1ccc(Br)cc1)[C@@H]2CO	3.2	2.4	0.8
CO[C@H]1CN(C)C(=O)c2cc(NS(C)(=O)=O)ccc2OC[C@H](C)N(C(=O)C2CCOCC2)C[C@H]1C	10.0	5.7	4.3
CCCNC(=O)N1C[C@H](C)[C@@H](OC)CN(C)C(=O)c2cc(NC(C)=O)ccc2OC[C@@H]1C	3.1	3.7	-0.6
O=C(N[C@@H]1C=C[C@H](CC(=O)N2CCC(Cc3ccccc3)CC2)O[C@@H]1CO)c1cnccn1	-4.2	-10.7	6.4
O=C(c1cccc(F)c1)N1CC2(C1)[C@H](c1ccccc1)[C@H](CO)N2Cc1ccccn1	-4.5	-8.0	3.5

Next part (three carried over from the part before).
SMILES	DUX4 txn inh	DUX4 txn inh difference	DUX4 txn inh control
CCCNC(=O)N1C[C@H](C)[C@@H](OC)CN(C)C(=O)c2cc(NC(C)=O)ccc2OC[C@@H]1C	3.1	3.7	-0.6
O=C(N[C@@H]1C=C[C@H](CC(=O)N2CCC(Cc3ccccc3)CC2)O[C@@H]1CO)c1cnccn1	-4.2	-10.7	6.4
O=C(c1cccc(F)c1)N1CC2(C1)[C@H](c1ccccc1)[C@H](CO)N2Cc1ccccn1	-4.5	-8.0	3.5
CCCC(=O)Nc1ccc2c(c1)OC[C@@H](C)N(CC1CCOCC1)C[C@@H](C)[C@H](OC)CN(C)C2=O	2.0	-4.7	6.8
COC(=O)[C@@H]1[C@@H](CO)[C@@H]2Cn3c(ccc(C4=CCCC4)c3=O)[C@@H]2N1C(=O)Cc1cccnc1	3.5	-4.1	7.5
COc1ccc(-c2ccc3c(c2)[C@@H]2[C@@H](CCN2C(=O)c2ccc(F)cc2)[C@H](CO)N3C)cc1	?	nt	nt
O=C(NCc1cc(F)cc(F)c1)[C@@H]1[C@@H](CO)[C@@H]2Cn3c(cccc3=O)[C@H]1N2C(=O)Cc1ccccn1	12.7	12.7	0.0
C[C@H]1CCCCO[C@H](CN(C)S(=O)(=O)c2cn(C)cn2)[C@@H](C)CN([C@@H](C)CO)C(=O)c2cc(NC(=O)Nc3ccc(C(F)(F)F)cc3)ccc2O1	-8.6	-7.0	-1.7
Cc1noc(C)c1NC(=O)N[C@H]1C=C[C@H](CC(=O)N2CCCCC2)O[C@@H]1CO	1.3	7.1	-5.8
Cc1ccc(S(=O)(=O)N(C)C[C@@H]2Oc3c(NS(C)(=O)=O)cccc3C(=O)N([C@H](C)CO)C[C@H]2C)cc1	1.6	0.6	1.0
COc1ccc(NC(=O)Nc2ccc3c(c2)C(=O)N([C@H](C)CO)C[C@H](C)[C@H](CN(C)S(=O)(=O)c2c(C)noc2C)OCCCC[C@@H](C)O3)cc1	-1.7	1.9	-3.5
C[C@H]1CN([C@@H](C)CO)C(=O)c2cc(C3=CCCCC3)cnc2O[C@@H]1CN(C)C(=O)Cc1ccncc1	2.7	2.4	0.3
O=C(C[C@@H]1C=C[C@H](NC(=O)Cc2ccccn2)[C@H](CO)O1)NCCc1ccncc1	4.3	2.3	1.9
COC(=O)[C@@H]1[C@@H](CO)[C@@H]2Cn3c(ccc(-c4ccccc4)c3=O)[C@@H]2N1Cc1ccccc1F	?	nt	nt
COc1ccc2c3c([nH]c2c1)[C@H](CO)N(Cc1nccs1)CC31CN(Cc2ccncc2)C1	0.6	-4.5	5.1
CO[C@H](CN(C)C(=O)c1cnccn1)[C@H](C)CN([C@H](C)CO)S(=O)(=O)c1ccc(Cl)cc1	2.2	-3.0	5.2
CN1C(=O)c2cc(NC(=O)c3cnccn3)ccc2OC[C@@H]2O[C@H](CC(=O)N[C@H]3CCN(Cc4ccccc4)C3)CC[C@@H]21	3.0	-0.8	3.9
C[C@@H]1CN([C@@H](C)CO)C(=O)c2c(c3ccccc3n2C)-c2ccccc2CO[C@H]1CN(C)C(=O)Nc1ccc2c(c1)OCO2	4.0	-4.7	8.7
CC(C)[C@@H]1COCc2cn(nn2)CC[C@H](Cc2ccc(-c3ccccc3)cc2)C(=O)N1	7.1	4.6	2.5
C[C@H]1CN([C@@H](C)CO)C(=O)CCCn2nncc2CO[C@@H]1CN(C)S(=O)(=O)c1ccc(C#N)cc1	-2.4	-2.2	-0.2
CC[C@H]1C/C=C\CCNC(=O)CCC(=O)N1	-0.2	2.1	-2.2
C[C@H]1CN([C@@H](C)CO)C(=O)Cc2cc(NC(=O)C3CC3)ccc2O[C@H]1CN(C)S(=O)(=O)c1cn(C)cn1	-2.4	-1.4	-1.0
C[C@@H]1CN([C@H](C)CO)C(=O)c2cccc(N(C)C)c2O[C@@H]1CN(C)C(=O)NC1CCCCC1	-2.5	-1.9	-0.6

Next section, overlapping the part above by 5 compounds.
SMILES	DUX4 txn inh	DUX4 txn inh difference	DUX4 txn inh control
CC(C)[C@@H]1COCc2cn(nn2)CC[C@H](Cc2ccc(-c3ccccc3)cc2)C(=O)N1	7.1	4.6	2.5
C[C@H]1CN([C@@H](C)CO)C(=O)CCCn2nncc2CO[C@@H]1CN(C)S(=O)(=O)c1ccc(C#N)cc1	-2.4	-2.2	-0.2
CC[C@H]1C/C=C\CCNC(=O)CCC(=O)N1	-0.2	2.1	-2.2
C[C@H]1CN([C@@H](C)CO)C(=O)Cc2cc(NC(=O)C3CC3)ccc2O[C@H]1CN(C)S(=O)(=O)c1cn(C)cn1	-2.4	-1.4	-1.0
C[C@@H]1CN([C@H](C)CO)C(=O)c2cccc(N(C)C)c2O[C@@H]1CN(C)C(=O)NC1CCCCC1	-2.5	-1.9	-0.6
Fc1cccc(CN2[C@@H]3CNC[C@H]2C3c2ccc(-c3ccncc3)cc2)c1 (stereo partly drawn)	7.8&10.0	6.3&9.9	1.5&0.2
C[C@H](CO)N1C[C@H](C)[C@H](CN(C)S(=O)(=O)c2cccs2)Oc2ncc(C#Cc3ccc(C(F)(F)F)cc3)cc2C1=O	-5.0	-4.6	-0.4
COc1ccc2c3c(n(C)c2c1)[C@H](CO)N(S(=O)(=O)c1ccc(C)cc1)CC31CCN(C)CC1	4.5	2.9	1.5
C[C@H]1CN([C@@H](C)CO)C(=O)c2cc(/C=C/c3ccccc3)cnc2O[C@@H]1CN(C)Cc1cccc(C(=O)O)c1	-4.6	-8.3	3.8
CN1CCN(C(=O)C[C@H]2CC[C@@H]3[C@H](COC[C@@H](O)CN3C(=O)Nc3ccc(Cl)cc3)O2)CC1	9.3	-3.4	12.6
COc1ccc2c3c([nH]c2c1)[C@H](CO)N(Cc1ccccc1F)CC31CN(C(=O)C2CCCC2)C1	?	nt	nt
CNC[C@@H]1OCCCC[C@H](C)Oc2ccc(NC(=O)CCC(F)(F)F)cc2C(=O)N([C@H](C)CO)C[C@@H]1C	6.0	1.3	4.7
C[C@@H]1CCCCO[C@H](CN(C)C(=O)CCCN(C)C)[C@@H](C)CN([C@H](C)CO)C(=O)c2cc(NC(=O)Nc3ccc4c(c3)OCO4)ccc2O1	-2.1	-0.8	-1.2
O=C(Cc1ccccn1)N1CC(=O)N2[C@H](C1)[C@H](c1ccc(C#CC3CC3)cc1)[C@@H]2CO	-1.4	-1.1	-0.3
CCCN1C[C@@H](C)[C@@H](OC)CN(C)C(=O)c2cc(NC(=O)c3cccc(OC)c3)ccc2OC[C@H]1C	-0.9	-1.2	0.3
CCCNC(=O)[C@@H]1[C@@H](CO)[C@@H]2Cn3c(cccc3=O)[C@@H]2N1C(=O)C1CCCC1	1.0	-2.0	3.0
COCC(=O)NC[C@H]1[C@H](c2ccc(C3=CCCC3)cc2)[C@H](CO)N1C(=O)C1CC1	-0.9	2.6	-3.5
COc1cccc(S(=O)(=O)Nc2ccc3c(c2)[C@@H]2C[C@H](CC(=O)NCC(F)(F)F)O[C@@H](CO)[C@@H]2O3)c1	4.5	4.4	0.1
CCCNC(=O)N1C[C@@H](O)COC[C@@H]2O[C@H](CC(=O)O)CC[C@H]21	-0.1	1.5	-1.6
O=C(C1CCOCC1)N1C[C@@H]2[C@H](c3ccccc31)[C@H](CO)N2C(=O)c1ccccc1	-2.4	-3.9	1.5
COc1ccccc1NC(=O)N(C)C[C@H]1OCc2ccccc2-c2c(n(C)c3ccccc23)C(=O)N([C@H](C)CO)C[C@@H]1C	1.3	1.7	-0.3
CC(C)NC(=O)N[C@H]1CC[C@H](CCNC(=O)C2CCOCC2)O[C@H]1CO	6.4	2.4	4.0
CN1CCN(C(=O)C[C@H]2CC[C@@H]3[C@H](COC[C@@H](O)CN3C(=O)Nc3ccc4c(c3)OCO4)O2)CC1	13.7	9.2	4.5
OC[C@H]1[C@@H](c2ccc(C#Cc3ccccc3)cc2)[C@@H]2CN(Cc3cncnc3)CCCCN12	1.8	-8.4	10.2
COc1ccc(C[C@H]2CCn3cc(nn3)COC[C@H](C(C)C)NC2=O)cc1	6.7	0.6	6.0
COc1ccc(S(=O)(=O)Nc2ccc3c(c2)C(=O)N([C@@H](C)CO)C[C@@H](C)[C@H](CN(C)S(=O)(=O)c2cn(C)cn2)OCCCC[C@H](C)O3)cc1	-3.5	-2.0	-1.5
O=C(C[C@H]1CC[C@H]2[C@@H](COC[C@H](O)CN2Cc2cc(F)ccc2F)O1)NCc1ccc(Cl)cc1	?	nt	nt
CN(C)CC#Cc1ccc([C@H]2[C@H](CO)N3C(=O)CN(C(=O)c4ccc(F)cc4)C[C@@H]23)cc1	10.8	2.4	8.3

A portion of the library (hit frequency here may not be typical).
